Source: PubChem BioAssay (several laboratories)
KOR beta-arrestin: kappa opioid receptor activators – cell-based, luminescence, uHTS, primary screen (AID 1777); KOR beta-arrestin recruitment, luminescence; higher % means a stronger effect; one-dose activation, % at 10 µM; EC50 in µM for titrated hits; actives 0.02% (n = 280,000); in the data active means activation above about 50%, passing the limit was not always enough; further: a part of the inactive calls stands beside numbers as strong as those of hits
AID2073: inhibitors of Mint1-CaV2.2 protein interaction, biochemical, HTRF (AID 2073); HTRF protein-protein interaction, Mint1-CaV2.2; higher % means a stronger effect; inhibition, % at 20 µM, or IC50 in µM where a hit was titrated; actives 0.19% (n = 290,000); in the data active means inhibition mostly above about 51%, no sharp cut-off; inconclusive means no clear call, values can overlap the other calls; inactive means mostly below about 53%; further: some results filed as inactive read as strong as hits
Dengue-2 NS5 capping: flavivirus cap methylation enzyme inhibition – biochemical, confirmation dose response, primary screen (AID 588689); Dengue-2 NS5 methyltransferase capping enzyme assay, biochemical; higher % means a stronger effect; inhibition, % at 25 µM; hits with a dose series show IC50 in µM; actives 0.3% (n = 340,000); in the data active means a potency from the dose series; inconclusive means inhibition above about 29% without an active follow-up result
West Nile antiviral: West Nile virus antiviral activity, cell-based, CPE readout (AID 1621) | West Nile virus-infected cells, CPE inhibition; higher % means a stronger effect | CPE inhibition, % at 10 µM, or IC50 in µM where a hit was titrated | actives 0.02% (n = 290,000); in the data active means a potency from the dose series; inconclusive means CPE inhibition mostly from about 3.7% at the one dose, without a potency; inactive means the rest, 99 in 100 with CPE inhibition below about 2.2%; further: strong numbers were not always called active
Yfh1-depleted yeast: mitochondrial function rescue without frataxin homolog – Friedreich's ataxia, plus single-dose screen, dose response (AID 1465). S. cerevisiae Yfh1-off respiration, WST-1 reduction, 72 h; higher fold induction means a stronger effect. actives 0.074% (n = 220,000). fold induction at 50 µM; hits with a dose series show EC50 in µM;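 active means fold induction of absorbance versus untreated yeast above a set limit, then at least 30% activation at any dose in follow-up; inconclusive means repeats straddling the limit, or above it without dose testing; inactive means fold induction below the set limit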;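 further: activators that raise dye reduction in frataxin-depleted yeast; strong numbers were not always called active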
Dengue-2 NS5 capping pilot replicate: recorded beside Dengue-2 NS5 capping, whose call it bears; inhibition, %; measured here: pilot screen replicate inhibition
* marks the source's active call; other numbers are inactive results; i = inactive; ? = inconclusive; / = no result given. Some of the compounds tested (hit frequency here may not be typical).

SMILES	KOR beta-arrestin	AID2073	Dengue-2 NS5 capping	West Nile antiviral	Yfh1-depleted yeast	others
CC(C)(C)NC(=S)N/N=C/c1cc(Br)c(O)c(Br)c1	4.4%	-17.2%	27.8%	-0.7%	i
O=c1c2ccccc2nc(/C=C/c2ccccc2O)n1-c1ccccc1O	-1.9%	?	-7.2%	12.7%	/
CCCCCCn1c(=O)c(C(=O)Nc2cnccn2)c(O)c2ccccc21	-1.8%	7.1%	0.8%	-1.9%	i
COc1cc2ccccc2cc1C(=O)Nc1ccc(Cc2ccncc2)cc1	0.6%	3.0%	1.4%	1.4%	i	Dengue-2 NS5 capping pilot replicate=-2.1
COc1ccc(/C=C/C(=O)c2c(C)cc(C)[nH]c2=O)c2ccccc12	7.5%	-0.7%	/	0.9%	/
CCCC[n+]1cc(/N=C(\[O-])OC)on1	-0.1%	2.0%	13.9%	0.1%	i
Cn1c(SCC(=O)N2CCCc3ccccc32)nc2ccccc2c1=O	0.9%	6.6%	-1.1%	-0.1%	i
COc1cccc(N2C(=O)/C(=C/c3ccc(C)o3)C(=O)NC2=S)c1	-4.2%	4.2%	14.2%	0.0%	/
Cc1oc(-c2ccc(Cl)cc2)nc1CSCC(=O)NC1CCN(Cc2ccccc2)CC1	-1.0%	3.7%	-9.1%	-0.4%	/
O=C(Nc1ccc(Cc2ccncc2)cc1)c1ccc(S(=O)(=O)N2CCCC2)cc1	4.5%	38.9%	-17.2%	-0.7%	i
CCCc1nc2ccccc2c(=O)n1-c1ccc(OC)cc1	5.7%	41.8%	2.0%	0.0%	i
c1ccc(CNc2ncnc3scc(-c4cccs4)c23)nc1	/	-10.2%	0.0%	1.7%	i
O=P(C(Cl)Cl)(N1CCCCC1)N1CCCCC1	0.1%	6.5%	3.1%	0.7%	i	Dengue-2 NS5 capping pilot replicate=2.7
COc1cc(/C=C2/C(=O)NN(c3cccc(Cl)c3)C2=O)cc(Br)c1O	-1.8%	18.9%	-55.0%	-0.4%	/
CCN1C(=O)NC(=O)/C(=C\c2cn(CC(=O)N3CCCC3)c3ccccc23)C1=O	9.2%	0.2%	?	-0.1%	/

Twelve structures already listed, ordered by heavy-atom count, descending.
SMILES	KOR beta-arrestin	AID2073	Dengue-2 NS5 capping	West Nile antiviral	Yfh1-depleted yeast	others
Cc1oc(-c2ccc(Cl)cc2)nc1CSCC(=O)NC1CCN(Cc2ccccc2)CC1	-1.0%	3.7%	-9.1%	-0.4%	/
O=C(Nc1ccc(Cc2ccncc2)cc1)c1ccc(S(=O)(=O)N2CCCC2)cc1	4.5%	38.9%	-17.2%	-0.7%	i
CCN1C(=O)NC(=O)/C(=C\c2cn(CC(=O)N3CCCC3)c3ccccc23)C1=O	9.2%	0.2%	?	-0.1%	/
COc1cc2ccccc2cc1C(=O)Nc1ccc(Cc2ccncc2)cc1	0.6%	3.0%	1.4%	1.4%	i	Dengue-2 NS5 capping pilot replicate=-2.1
O=c1c2ccccc2nc(/C=C/c2ccccc2O)n1-c1ccccc1O	-1.9%	?	-7.2%	12.7%	/
Cn1c(SCC(=O)N2CCCc3ccccc32)nc2ccccc2c1=O	0.9%	6.6%	-1.1%	-0.1%	i
COc1ccc(/C=C/C(=O)c2c(C)cc(C)[nH]c2=O)c2ccccc12	7.5%	-0.7%	/	0.9%	/
COc1cccc(N2C(=O)/C(=C/c3ccc(C)o3)C(=O)NC2=S)c1	-4.2%	4.2%	14.2%	0.0%	/
c1ccc(CNc2ncnc3scc(-c4cccs4)c23)nc1	/	-10.2%	0.0%	1.7%	i
CC(C)(C)NC(=S)N/N=C/c1cc(Br)c(O)c(Br)c1	4.4%	-17.2%	27.8%	-0.7%	i
O=P(C(Cl)Cl)(N1CCCCC1)N1CCCCC1	0.1%	6.5%	3.1%	0.7%	i	Dengue-2 NS5 capping pilot replicate=2.7
CCCC[n+]1cc(/N=C(\[O-])OC)on1	-0.1%	2.0%	13.9%	0.1%	i

Carrying on.
SMILES	KOR beta-arrestin	AID2073	Dengue-2 NS5 capping	West Nile antiviral	Yfh1-depleted yeast	others
COC(=O)c1ccc2c(c1)C(C)(C)C(/C=C/c1ccccc1O)=[N+]2C	-1.2%	-9.1%	?	-2.1%	i
CCCOC(=O)c1[nH]c2c(c1C)C(=O)CC(c1cc(OC)c(OC)c(OC)c1)C2 (stereo unspecified)	0.2%	-6.7%	6.5%	-0.5%	i
COc1cc2ncnc(NCCc3ccccc3)c2cc1OC	1.2%	0.9%	1.6%	-1.1%	i
S=C(Nc1ccc(Oc2ccccc2)cc1)N1CCN(c2ccccn2)CC1	-2.0%	-19.9%	-13.5%	0.4%	i
